From PubChem
RE007 growth inh = qHTS Assay for Inhibitors of the HIV-1 protein Vpr; Potency, µM (doses to about 92.2 µM), for inactives: at the highest dose activity change, negative = less growth; S. pombe RE007 Vpr strain, BacTiter-Glo ATP luminescence, 24 h; control for the full effect not named in the record; AID 651644, 2012; 0.21% of 360,000 active; active = well fitted falling curve with a large enough effect; inconclusive = small, poorly fitted or top-dose-only effect; inactive = no such curve, though single readings can be large or run the other way;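 further: on the % scale 0 is the no-effect control and ±100 the full control effect; nearly all actives have a fitted effect of over 50% in size; the assay follows cell death caused by Vpr and the record does not say whether a fall means rescue or toxicity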
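Fission yeast strain RE007, carrying one chromosomally integrated HIV-1 vpr copy, was seeded at OD 0.01 in PMG+AL medium with 23 nL pinned compound. After 24 h at 30 °C and 99% humidity, viability was read by BacTiter-Glo luminescence.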
Cruzain inh noDet = qHTS Assay for Promiscuous and Specific Inhibitors of Cruzain (without detergent); 2.3% of 200,000 active; AID 1476, 2009; purified cruzain, Z-FR-AMC fluorescence, no detergent; Potency, µM, for inactives: max response, negative = inhibition, most hits filed as inhibitors;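 further: plate controls were enzyme without inhibitor for no effect and buffer without enzyme for full effect; nearly all actives have a fitted effect of over 40% in size; top concentration of the series not given in the record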
Target sequence (P25779 123-467 limits assumed): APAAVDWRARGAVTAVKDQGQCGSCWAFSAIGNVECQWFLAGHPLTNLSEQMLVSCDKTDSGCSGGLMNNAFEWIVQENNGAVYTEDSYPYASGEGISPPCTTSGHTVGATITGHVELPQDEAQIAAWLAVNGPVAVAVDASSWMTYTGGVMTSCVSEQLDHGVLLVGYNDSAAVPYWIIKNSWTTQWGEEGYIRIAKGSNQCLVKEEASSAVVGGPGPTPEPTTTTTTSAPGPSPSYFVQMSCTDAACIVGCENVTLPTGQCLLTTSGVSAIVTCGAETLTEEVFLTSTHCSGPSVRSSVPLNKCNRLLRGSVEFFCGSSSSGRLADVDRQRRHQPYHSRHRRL
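Purified cruzain at 1.5 nM, pre-incubated 15 min with compound at room temperature in 100 mM sodium acetate pH 5.5, 5 mM DTT, 0.00005% Triton X-100. Reaction started with 2 uM Z-FR-AMC; AMC fluorescence increase over 60 s gives rate.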
NS1 function inh = qHTS Assay for Inhibitors of Influenza NS1 Protein Function; S. cerevisiae slowed by influenza A NS1, growth recovery by OD600; Potency, µM (series often up to 46.1 µM), without a hit: at the highest dose activity, positive = more growth; 0.4% of 270,000 active; AID 2326, 2010; active means well fitted rising curve with a large enough effect; inconclusive means small, poorly fitted or top-dose-only effect; inactive means no such curve, though single readings can be large or run the other way; further: nearly all actives have a fitted effect of over 50% in size
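Growth recovery, yeast-based: influenza A NS1 expressed in S. cerevisiae causes slow growth, and suppressors are detected by OD600. The parent strain without NS1 is used as positive control.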
Lassa entry inh = qHTS for Inhibitors of binding or entry into cells for Lassa Virus; Potency, µM (titrated, usually from 37.9 µM), for the others: at the top dose activity change, negative = inhibition, usual class: inhibitors; AID 540256, 2011; Lassa virus pseudotype entry inhibition, cell reporter; control for the full effect not named in the record; 1.2% of 300,000 active; active means well fitted inhibition curve with a large enough effect; inconclusive means small, poorly fitted or top-dose-only effect, or effect the other way; inactive means flat fitted curve, though single readings scatter; tested in HEK293 cells; further: on the % scale 0 is the no-effect control and ±100 the full control effect; nearly all actives have a fitted effect of over 50% in size; luciferase read-out
Marburg entry inh = qHTS for inhibitors of binding or entry into cells for Marburg Virus; Marburg virus pseudotyped entry inhibition, cell reporter; control for the full effect not named in the record; about a third of the inactives were read at about 46 µM; Potency, µM (titrated, usually from 37.8 µM), inactives show at the highest dose activity change, negative = inhibition, actives largely listed as inhibitors; 1.8% of 300,000 active; active = well fitted inhibition curve with a large enough effect; inconclusive = small, poorly fitted or top-dose-only effect, or effect the other way; inactive = flat fitted curve, though single readings scatter; tested in HEK293 cells; about a fifth of its hits are not listed in these tables; further: on the % scale 0 is the no-effect control and ±100 the full control effect; luciferase read-out
SARS PLpro yeast = qHTS of Yeast-based Assay for SARS-CoV PLP. S. cerevisiae expressing SARS-CoV PLpro, growth rescue; control for the full effect not named in the record. Potency, µM (top dose mostly 32.9 µM), without a hit: at the top dose activity, positive = growth rescue. 0.19% of 330,000 active. AID 485353, 2010; active means well fitted rising curve with a large enough effect; inconclusive means small, poorly fitted or top-dose-only effect; inactive means no such curve, though single readings can be large or run the other way; further: 0% is about no effect; nearly all actives have a fitted effect of over 55% in size; growth read by luminescence after 48 h
Cruzain Triton = qHTS Assay for Promiscuous and Specific Inhibitors of Cruzain (with detergent). Potency, µM, without a hit: max response, negative = inhibition, most hits filed as inhibitors. purified cruzain, Z-FR-AMC fluorescence, 0.01% Triton. 0.43% of 200,000 active;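 further: plate controls were neutral wells for no effect and buffer without enzyme for full effect; nearly all actives have a fitted effect of over 40% in size; top concentration of the series not given in the record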
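Z-FR-AMC hydrolysis (2 uM substrate) by cruzain (1.5 nM) monitored kinetically at ex 360/em 450 nm after 15 min room-temperature compound exposure; 0.01% Triton X-100, pH 5.5, 5 mM DTT.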
StopGo reporter = High Throughput Screening for Foot and Mouth Disease Virus Antivirals; human cells with a luciferase reporter of 2A StopGo recoding; control for the full effect not named in the record; Potency, µM (series often up to 57.9 µM), inactives show top-dose signal change, negative = less light; 1.2% of 410,000 active; AID 1159524, 2015; active = well fitted falling curve with a large enough effect; inconclusive = small, poorly fitted or top-dose-only effect; inactive = no such curve, though single readings can be large or run the other way; tested in HEK293T cells; further: on the % scale 0 is the no-effect control and ±100 the full control effect; nearly all actives have a fitted effect of over 45% in size; luciferase light after 4 h
Numbers without * were called inactive; ? = inconclusive; · = no result given; & = joins results of further samples; [ ] = another dose, or the depositor's remark. Unless noted, the call rests on the fitted dose curve; in most records, active means well fitted curve in the direction sought with a large enough effect; inconclusive means small, poorly fitted or top-dose-only effect, or another doubt; inactive means no such curve, though single readings can be large; an effect the other way counts as inactive or inconclusive. Potency means the concentration at half of the fitted maximal effect.

SMILES | RE007 growth inh | Cruzain inh noDet | NS1 function inh | Lassa entry inh | Marburg entry inh | SARS PLpro yeast | Cruzain Triton | StopGo reporter
COc1ccccc1NC(=O)C1=C(C)Nc2nc(SCc3ccccc3F)nn2C1c1ccncc1 (configuration not stated) | · | 5% | · | -14%[46.1 µM] | ? | · | 0.6% | -11%
CC1CC(C)CN(C(=O)c2cn(C)c3ccc(S(=O)(=O)N(C)C)cc3c2=O)C1 (configuration not stated) | 1% | -5% | 6% | · | · | -8% | 1.0% | 16%
COc1ccc(OCC2CCCN(Cc3nc(CC4CC4)no3)C2)cc1 (configuration not stated) | 5% | · | -10% | 14%[46.1 µM] | -3%[46.1 µM] | -1% | · | -4%
Brc1ccc(Cn2c(-c3cncs3)nc3ccccc32)cc1 | 19% | -7% | -5% | ? | ? | 6% | -9.2% | 22%
CSc1nnc(-c2ccc(C(F)(F)F)cn2)o1 | -24% | · | 4% | 1% | -2% | 0% | · | 43%[activator]
CC(C)(C)C(=O)NC1(C(F)(F)F)NC(=O)N(c2ccc(F)cc2)C1=O (configuration not stated) | 3% | 1% | 0% | 0%[46.1 µM] | -2%&-9%[46.1 µM] | -1% | -0.9% | 7%&4%
Cc1cc2c(c(=O)o1)C(c1ccc([N+](=O)[O-])o1)C(C#N)=C(N)O2 (configuration not stated) | 2% | · | 9% | 1% | -13%[46.1 µM] | -1% | · | -17%
O=C(c1ccc(CS(=O)(=O)c2ccccc2)o1)N1CCN(c2ncccn2)CC1 | 3% | 7% | 4% | · | 2% | -2% | -9.7% | -25%
Cc1c(CN(C)CCc2ccccc2)c(=O)n(-c2ccccc2)n1C | 3% | -10% | 5% | -2% | -4% | 4% | 2.6% | 10%
CCS(=O)(=O)c1ccc2oc(Nc3ccc(C(C)C)cc3)nc2c1 | ? | -16% | 21% | -14% | -1% | -6% | -3.5% | -12%
C=CCc1ccc(OCCOCCNCCOC)c(OC)c1 | -15% | -5% | -5% | -6% | 4% | -1% | 3.8% | -14%
COCCn1c(C)cc(C(=O)COC(=O)c2ccc[nH]c2=O)c1C | 5% | 3% | 9% | ? | ? | -16% | -2.0% | ?
CC(C)c1ccc(NC(=S)NN2CCN(C)CC2)cc1 | 6% | · | -1% | · | · | 0% | · | -4%
CC1CCCCN1C(=O)CCS(=O)(=O)c1cc2c(cc1Cl)NC(=O)CO2 (configuration not stated) | 8% | -11% | 4% | -18%[46.1 µM] | · | -12% | -6.4% | -11%&-22%
NC(=S)Nc1ccc(F)cc1F | -4% | · | -1% | 28% | -14% | 0% | · | 7%
O=C(NCc1ccc2c(c1)OCO2)c1ccc(CN2CCOCC2)cc1 | 0% | -4% | 4% | 40%[14.3 µM] | -4% | 7% | 6.5% | 22%
CCOC(=O)NNc1ccc2nonc2c1[N+](=O)[O-] | 25µM* | · | -35% | ? | 11µM* | -7% | · | -25%
Cc1cc(C)c2[nH]c(=O)c(C(c3nnnn3C(C)(C)C)N3CCN(C(=O)c4ccco4)CC3)cc2c1 (configuration not stated) | 9% | ? | -9% | 0% | ? | 3% | -8.2% | ·
O=C(COc1cnc2ccccc2n1)NCCC1=CCCCC1 | 1% | 7% | 0% | 19% | 10% | -1% | -0.3% | 3%
CCOC(=O)c1cnn2c(C(F)(F)F)cc(-c3ccco3)nc12 | -13% | 7% | -2% | 4% | 21%[46.1 µM] | 5% | -12% | ?
Cc1cccc(NC(=O)c2sc3cccc(Cl)c3c2Cl)c1 | · | -4% | · | ? | · | · | -2.6% | 35%[activator]
O=C(NC(Cc1ccccc1)C(=O)N1CCN(c2ccccc2O)CC1)c1ccccc1 (configuration not stated) | -4% | · | · | ? | ? | -1% | · | -20%
CCN(CCn1cccn1)C(=O)CC1C(=O)NCCN1Cc1ccc(F)c(F)c1 (configuration not stated) | 19% | · | 0% | 17% | 0% | -1% | · | 10%
CCNc1cc(N2CCN(S(=O)(=O)c3ccc4c(c3)CCCC4)CC2)ccc1[N+](=O)[O-] | 13% | 5µM* | 5% | -2% | -17% | -2% | -2.3% | -7%
CCCn1c(=O)c2ccccc2n2c(SCC(=O)c3ccc(CC)cc3)nnc12 | 13% | 3% | 4% | 0% | 1% | 7% | 6.0% | -19%
CCOc1cccc(=O)c2c(C)n(C)c(C)c12 | 10% | -6% | 0% | -17% | 0% | -1% | -5.7% | 7%
CCC(C)(C)NC(=O)Cn1c(=O)oc2cc(S(=O)(=O)N3CC(C)CC(C)C3)ccc21 (configuration not stated) | 3% | · | -3% | · | · | 11% | · | -2%
CCOc1cc(/C=N/OC(C)=O)ccc1OCc1ccccc1 | -27% | · | -5% | 0% | -19%[14.2 µM] | 1% | · | 29%
Cc1ccc(-n2c(-c3ccccc3)n[nH]c2=S)cc1 | 10% | 0% | -4% | 3% | 0% | -6% | -4.1% | -4%
CCC(=O)Nc1ccc2nc(C)n(Cc3ccccc3Cl)c(=O)c2c1 | 17% | -11% | -10% | -2% | 2% | -98% | -3.2% | -27%
CC(NC(=O)CSc1nnc(CC(=O)Nc2ccc(Cl)c(Cl)c2)n1C)c1ccccc1 (configuration not stated) | -24% | 8% | -7% | 15% | 15% | 7% | 1.0% | -1%
C=CCNC(=O)/C(=C\C=C\c1ccccc1)NC(=O)c1ccc(OCCCC)cc1 | 2% | -14% | 11µM* | -14% | 48% | -13% | -5.1% | 0%
CC(C)C(NC(=O)OCc1ccccc1)C(=O)NC(Cc1ccc(O)cc1)C(=O)O (configuration not stated) | -1% | · | 7% | -10% | -2% | 0% | · | 4%
CC(C)CNC(=O)CC(c1ccccc1)c1c(O)ccc2ccccc12 (configuration not stated) | 6% | 2% | -10% | -30% | ? | -1% | -1.1% | 1%
Cc1ccc(S(=O)(=O)N(C)c2ccccc2)cc1 | -7% | 2% | -6% | 4% | -17% | 0% | 3.3% | -9%
Clc1ccc(CSc2nnc(-c3ccccn3)n2Cc2ccco2)c(Cl)c1 | -2% | ? | -33% | 7% | ? | 6% | -10% | ?
O=C(NCc1ccccc1)c1cccn1-c1nnc(N2CCCCC2)s1 | · | -20% | · | -10%[46.1 µM] | · | · | 3.0% | 28%
COc1ccc(NC(=O)Nc2cc(C)ccc2OC)cc1 | 3% | -7% | -3% | -4% | 0% | 1% | 2.8% | 9%
Cc1cccc(C(=O)N2CCN(c3ccc([N+](=O)[O-])c(N4CCOCC4)c3)CC2)c1 | -6% | 22% | -6% | ? | -26% | 4% | -8.1% | -25%
COc1cc2[nH]c(=O)n(Cc3ccc(C(=O)NCc4ccc(C)cc4)cc3)c(=O)c2cc1OC | · | ? | · | 29%[46.1 µM] | -1%[46.1 µM] | · | 0.7% | -30%
O=C(COC(=O)c1cc[n+]([O-])cc1)Nc1ccccc1Cl | -5% | · | 8% | -12% | -5%[14.2 µM] | 0% | · | 10%
Cc1ccc(-n2c(SCC(=O)O)nc3c(sc(=S)n3-c3ccc(C)c(C)c3)c2=O)cc1 | -13% | · | ? | · | · | 1% | · | -10%
CC(=O)c1cccc(Nc2cc(C)nc3ccccc23)c1 | 14% | · | 1% | · | · | 1% | · | -3%
Cn1c(=O)cc(OCC(=O)N2CCN(c3ccccc3F)CC2)c2ccccc21 | -7% | -7% | · | -2%[46.1 µM] | 21%&21%[46.1 µM] | 0% | -2.3% | -1%&-9%
CN1C(=O)/C(=C\c2ccncc2)SC1=Nc1ccccc1 | -23% | -12% | -51% | ? | ? | -60% | -6.5% | ?
Cc1ccccc1NC(=O)CN1C(=O)COc2ccc(S(=O)(=O)N3CCCC3)cc21 | 3% | · | 6% | 10%[46.1 µM] | 2%[46.1 µM] | ? | · | -12%
Cc1ccc(NC(=O)CSCCc2ccccn2)nc1 | 16% | 0% | 0% | 22% | ? | 1% | 7.7% | 28%
Cc1ccc(C(=O)NC(=S)Nc2ccc(NC(=O)c3cccs3)cc2)cc1[N+](=O)[O-] | 9% | 10µM* | 11% | 5% | -20% | 9% | -1.1% | ?

Whole records, looked up by structure. Order of values: RE007 growth inh, Cruzain inh noDet, NS1 function inh, Lassa entry inh, Marburg entry inh, SARS PLpro yeast, Cruzain Triton, StopGo reporter
CC(=O)c1cccc(Nc2cc(C)nc3ccccc23)c1 is listed with 14%, ·, 1%, ·, ·, 1%, ·, -3%
Cc1ccc(C(=O)NC(=S)Nc2ccc(NC(=O)c3cccs3)cc2)cc1[N+](=O)[O-] is listed with 9%, 10µM*, 11%, 5%, -20%, 9%, -1.1%, ?

(continued)
SMILES | RE007 growth inh | Cruzain inh noDet | NS1 function inh | Lassa entry inh | Marburg entry inh | SARS PLpro yeast | Cruzain Triton | StopGo reporter
COCCNc1nnc(SC(C)C(=O)Nc2c(C)n(C)n(-c3ccccc3)c2=O)s1 (configuration not stated) | 0% | · | 7% | 9% | 9% | -2% | · | -8%
COc1ccc(Cl)cc1NC(=O)CNCC(c1ccccc1)N(C)C (configuration not stated) | 9% | · | 6% | -12% | ? | -3% | · | -16%
N#CC1=C2SCN(c3ccccc3)CN2C(=O)CC1c1ccccc1Cl (configuration not stated) | -11% | ? | -26% | · | · | 3% | -5.1% | -21%
Cn1cccc1C(=O)OCC(=O)NCCCc1ccccc1 | 0% | · | · | 23% | -23% | 0% | · | 36%[activator]
CC(C)OC(=O)c1cc2ccccc2[nH]1 | -11% | -10% | 6% | 3% | 9% | -20% | -4.7% | 17%
Cc1ccc(NS(=O)(=O)c2ccc3c(c2)oc(=O)n3C)cc1C | 16% | · | -5% | -2% | 2% | -2% | · | 15%
Cc1cc(C)cc(Oc2nc3c(C)cccn3c(=O)c2/C=C(\C#N)c2nc3ccccc3s2)c1 | · | -16% | · | -1%[46.1 µM] | -3%[46.1 µM] | · | -5.8% | 8%
Cc1nnc(NC(=O)CSc2nnc(Cc3cccn3C)n2-c2cccc(C(F)(F)F)c2)s1 | 0% | ? | -46% | · | · | 0% | 1.3% | -10%
COC(=O)c1ccc(NC(=O)CCc2c(C)nc3ncnn3c2C)cc1 | -8% | 9% | 9% | 0% | 1% | -1% | 6.2% | 23%
